# Cruzain Triton: cruzain (T. cruzi) inhibition with detergent; P25779; purified cruzain, Z-FR-AMC fluorescence, 0.01% Triton; Potency, µM, without a hit: max response, negative = inhibition, usual class: inhibitors; 200,000 tested, 0.43% active; AID 1478; active means well fitted curve in the direction sought with a large enough effect; inconclusive means small, poorly fitted or top-dose-only effect, or another doubt; inactive means no such curve, though single readings can be large; an effect the other way counts as inactive or inconclusive;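 further: plate controls were neutral wells for no effect and buffer without enzyme for full effect; nearly all actives have a fitted effect of over 40% in size; top concentration of the series not given in the record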
# Target sequence (P25779 123-467 limits assumed): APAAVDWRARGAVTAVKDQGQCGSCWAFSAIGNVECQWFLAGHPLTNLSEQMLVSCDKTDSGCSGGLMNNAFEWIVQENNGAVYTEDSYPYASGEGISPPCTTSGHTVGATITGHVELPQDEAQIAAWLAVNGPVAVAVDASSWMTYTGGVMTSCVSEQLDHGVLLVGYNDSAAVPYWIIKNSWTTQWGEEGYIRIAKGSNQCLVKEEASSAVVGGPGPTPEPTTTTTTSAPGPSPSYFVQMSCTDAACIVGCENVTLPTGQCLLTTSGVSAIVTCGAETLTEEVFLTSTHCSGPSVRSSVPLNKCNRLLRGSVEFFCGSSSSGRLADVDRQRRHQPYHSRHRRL
#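 Cysteine protease activity tested under reducing, mildly acidic conditions (100 mM sodium acetate pH 5.5, 5 mM DTT) plus 0.01% Triton X-100. Cruzain 1.5 nM; substrate Z-FR-AMC 2 uM; 15 min compound preincubation at room temperature.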
# MARV entry inh: inhibitors of Marburg virus binding or cell entry; Marburg virus pseudotyped entry inhibition, cell reporter; control for the full effect not named in the record; about a third of the inactives were read at about 46 µM; Potency, µM (doses to about 37.8 µM), for the others: at the top dose activity change, negative = inhibition, most hits filed as inhibitors; 300,000 tested, 1.8% active; active = well fitted inhibition curve with a large enough effect; inconclusive = small, poorly fitted or top-dose-only effect, or effect the other way; inactive = flat fitted curve, though single readings scatter; tested in HEK293 cells; about a fifth of its hits are not listed in these tables; further: on the % scale 0 is the no-effect control and ±100 the full control effect; luciferase read-out
# RE007 growth inh: less growth of the S. pombe RE007 Vpr strain; Potency, µM (top dose mostly 92.2 µM), inactives show top-dose activity change, negative = less growth; 360,000 tested, 0.21% active; S. pombe RE007 Vpr strain, BacTiter-Glo ATP luminescence, 24 h; control for the full effect not named in the record; active = well fitted falling curve with a large enough effect; inconclusive = small, poorly fitted or top-dose-only effect; inactive = no such curve, though single readings can be large or run the other way;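 further: on the % scale 0 is the no-effect control and ±100 the full control effect; nearly all actives have a fitted effect of over 50% in size; the assay follows cell death caused by Vpr and the record does not say whether a fall means rescue or toxicity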
#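 Fission yeast RE007 carrying one integrated HIV-1 vpr copy, seeded at OD 0.01 in PMG+AL medium with 23 nL pinned compound. Grown 24 h at 30 degrees; viability read by BacTiter-Glo luminescence after 5 min.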
# NS1 inh: inhibitors of influenza NS1 protein function; 270,000 tested, 0.4% active; AID 2326; S. cerevisiae slowed by influenza A NS1, growth recovery by OD600; Potency, µM (doses to about 46.1 µM), without a hit: top-dose activity, positive = more growth; further: actives are rising curves; nearly all actives have a fitted effect of over 50% in size
#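 Compounds were scored for reversing the slow growth caused by influenza A NS1 in S. cerevisiae, measured by optical density at 600 nm. Assay medium contained 2% galactose at pH 6.0; NS1-free yeast of the same strain were the positive control.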
# SARS PLpro yeast: blocks SARS-CoV papain-like protease in a yeast assay. S. cerevisiae expressing SARS-CoV PLpro, growth rescue; control for the full effect not named in the record. Potency, µM (highest dose often 32.9 µM), for inactives: at the highest dose activity, positive = growth rescue. 330,000 tested, 0.19% active; further: 0% is about no effect; nearly all actives have a fitted effect of over 55% in size; growth read by luminescence after 48 h
# Cruzain noTriton: cruzain (T. cruzi) inhibition without detergent | P25779 | purified cruzain, Z-FR-AMC fluorescence, no detergent | Potency, µM, inactives show max response, negative = inhibition, most hits filed as inhibitors | 200,000 tested, 2.3% active | AID 1476; active means well fitted curve in the direction sought with a large enough effect; inconclusive means small, poorly fitted or top-dose-only effect, or another doubt; inactive means no such curve, though single readings can be large; an effect the other way counts as inactive or inconclusive;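 further: plate controls were enzyme without inhibitor for no effect and buffer without enzyme for full effect; nearly all actives have a fitted effect of over 40% in size; top concentration of the series not given in the record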
#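 Detergent-free condition (0.00005% Triton X-100) in acetate buffer pH 5.5 with DTT. 1.5 nM enzyme and compound were pre-mixed 15 min, then 2 uM Z-FR-AMC substrate added; reaction progress from fluorescence change between first and third reads (60 s).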
# LASV entry inh: blocks Lassa virus binding to or entry into cells; Lassa virus pseudotype entry inhibition, cell reporter; control for the full effect not named in the record; 300,000 tested, 1.2% active; AID 540256; Potency, µM (titrated, usually from 37.9 µM), for inactives: at the top dose activity change, negative = inhibition, actives largely listed as inhibitors; active means well fitted inhibition curve with a large enough effect; inconclusive means small, poorly fitted or top-dose-only effect, or effect the other way; inactive means flat fitted curve, though single readings scatter; tested in HEK293 cells; further: on the % scale 0 is the no-effect control and ±100 the full control effect; nearly all actives have a fitted effect of over 50% in size; luciferase read-out
# StopGo reporter: FMDV 2A StopGo reporter, luciferase signal | 410,000 tested, 1.2% active | Potency, µM (top dose mostly 57.9 µM), for the others: top-dose signal change, negative = less light | human cells with a luciferase reporter of 2A StopGo recoding; control for the full effect not named in the record | AID 1159524; active = well fitted falling curve with a large enough effect; inconclusive = small, poorly fitted or top-dose-only effect; inactive = no such curve, though single readings can be large or run the other way; tested in HEK293T cells; further: on the % scale 0 is the no-effect control and ±100 the full control effect; nearly all actives have a fitted effect of over 45% in size; luciferase light after 4 h
# The depositor's hits bear a star; ? = inconclusive; · = no result given; & = joins results of further samples; [ ] = dose if it differs, or a comment. Unless noted, the call rests on the fitted dose curve; in most records, active means well fitted rising curve with a large enough effect; inconclusive means small, poorly fitted or top-dose-only effect; inactive means no such curve, though single readings can be large or run the other way. Potency means the concentration at half of the fitted maximal effect.
SMILES,Cruzain Triton,MARV entry inh,RE007 growth inh,NS1 inh,SARS PLpro yeast,Cruzain noTriton,LASV entry inh,StopGo reporter
CCCCn1c(SCC(=O)NC2CCCC2)nc2ccccc2c1=O,·,10%,4%,·,0%,·,10%,-15%
Oc1ccc(Cl)cc1,-1.4%&2.9%,·,-3%[18.4 µM],·,0%,-9%&1%,·,-2%&-3%
Cc1ccc(CNC(=O)CCCn2c(=O)c3ccccc3n(CC(=O)Nc3ccc(C)c(C)c3)c2=O)cc1,-1.2%,0%[46.1 µM],·,·,·,-6%,26%[46.1 µM],-17%
COC(=O)C1C(OC(=O)c2ccccc2)CC2CCC1N2C (centres undefined),-0.5%,·,-8%&1%,4%,4%&1%,-5%,·,-25%&-9%
Cc1ccc(C)c(OCc2cc(C(=O)N3CCc4sccc4C3)no2)c1,·,3%,10%,20%,2%,·,26%,-17%
COc1ccc2c(c1)cc1c(=O)n(CC(=O)NCc3ccco3)nc(C)n12,-1.0%,?,·,·,·,3%,·,7%
Cc1nn(CC(=O)Nc2ccc(Cl)cn2)c(C)c1Br,-2.4%,3%,19%,13%,-30%,-10%,1%,16%
Cc1nnc(NC(=O)C2CCCN(S(=O)(=O)c3ccccc3C(F)(F)F)C2)s1 (centres undefined),3.3%,-2%,17%,1%,3%,4%,-1%,-14%
O=C(Nc1ccc(C(=O)N2CCCCC2)cc1)C1=CSCCO1,·,·,-18%,-5%,-7%,·,·,64%[activator]
CCN(Cc1ccccc1)C(=O)C1CCN(C/C(C)=C/c2ccccc2)CC1,0.0%,13%,-1%,-1%,2%,-2%,-2%,-26%
Cc1nnc(C)c2c(C)n(-c3ccc(Br)cc3)c(C)c12,2.2%,-1%,·,2%,2%,-5%,·,·
Cc1cc(C)n(-c2nc3ccccc3c(=O)n2OCC(=O)N(C)C)n1,2.8%,26%,-4%,-6%,-2%,8%,7%,-15%
CC1CCC(NC(=O)COC(=O)c2n[nH]c(=O)c3ccccc23)CC1 (centres undefined),·,26%,-10%,·,-4%,·,0%,-6%
Cc1cc(C(=O)CSc2nc3ccccc3o2)c(C)n1CC1CCCO1 (centres undefined),1.4%,?,11%,-7%,-3%,1%,?,?
CCOc1ccc(-c2cc(C(=O)N/N=C(\C)c3cccnc3)c3ccccc3n2)cc1,·,?,-2%,0%,2%,·,?,-6%
CC(C)C(=O)NC(=S)N1CCc2ccccc21,-5.7%,?,·,6%,26%,-20%,15%,0%
CCC(C)Sc1nc2c(cnn2-c2ccc(F)cc2)c(=O)[nH]1 (centres undefined),·,-25%,-7%,1%,0%,·,?,-10%
COC(CN(C)C(=O)c1cn(C)c2ccc(S(=O)(=O)N(C)C3CCCCC3)cc2c1=O)OC,·,·,59%,4%,5%,·,·,-3%
O=[N+]([O-])c1ccc(S(=O)(=O)NCCCc2ccccc2)cc1,·,?,-8%,·,·,·,11%[46.1 µM],42%[activator]
CSc1ccc(/C=N/NC(=O)c2cccc(Cl)c2)cc1,?,-60%,-2%,-11%,-25%,?,?,-30%
c1ccc(N/N=C(\Cc2ncc[nH]2)c2ccccc2)cc1,·,13%[46.1 µM],33%,·,3%,·,8%,4%
O=c1[nH]c(C2CCCN(S(=O)(=O)c3cccc(F)c3)C2)nc2c1nnn2Cc1ccccc1 (centres undefined),·,-29%[46.1 µM],-3%,26%,3%,·,?,-22%
c1ccc(Cn2c(NCc3ccncc3)nc3ccccc32)cc1,·,-25%,-18%,6%,-1%,·,-25%,-10%
Cc1cc(Cl)ccc1NC(=S)NCc1ccc(S(N)(=O)=O)cc1,·,?,-12%,11%,0%,·,3%[46.1 µM],-1%
O=C(Nc1ccc(OCC(F)(F)C(F)F)c(C(F)(F)F)c1)c1ccccc1O,-9.4%,?,-6%,-48%,-38%,1%,?,?
CN(C(=O)COC(=O)c1cc(S(=O)(=O)N2CCOCC2)ccc1Cl)C1CCS(=O)(=O)C1 (centres undefined),·,16%,3%,·,-1%,·,-1%,-4%
Cc1ccc(S(=O)(=O)N2CCOCC2)cc1C(=O)Nc1ccccc1C(=O)O,0.1%,5%[46.1 µM],·,·,·,3%,?,-6%
CC(C)(C)NC(=O)C(=O)NCc1ccncc1,1.6%,30%,7%,2%,-2%,9%,-4%,-3%
CCc1nnc(NC(=O)CSc2nnc(COc3ccc(C)cc3)n2-c2ccccc2)s1,1.6%,0%,-17%,-12%,6%,-9%,14%,3%
CN(CC(=O)N1CCCCCC1)S(=O)(=O)c1ccc(Br)s1,1.7%,?,-14%,-4%,·,-7%,13%,8%
CCc1cc2c(-c3ccccc3)cc(=O)oc2cc1OCC(C)=O,·,?,7%,-55%,0%,·,?,?
COc1cc(NC(=O)CCNS(=O)(=O)c2ccc3c(c2)CCN3C(=O)C2CC2)cc(OC)c1,-1.6%,·,·,·,·,-10%,?,-15%
COCCNC(=O)c1onc(CSc2nc3ccccc3[nH]2)c1C(=O)NCCOC,·,·,15%,2%,-12%,·,·,-13%
CC1CC(NC(=O)/C(C#N)=C/c2ccc[nH]2)CC(C)(C)C1 (centres undefined),·,·,1%,1%,2%,·,·,-28%
CC1CCN(C(=O)COC(=O)c2ccc(F)c(S(=O)(=O)N3CCOCC3)c2)CC1,·,12%,9%,-3%,2%,·,0%,0%
Cc1cc(NC(=O)C2CCCCC2)ncc1NC(=O)c1ccccn1,·,·,-11%,-7%,0%,·,·,29%
COC(=O)c1cccc(NC(=O)CSCc2ccccc2)c1,·,·,2%,-14%,2%,·,·,51%[activator]
CSCC[C@H](NC(=O)Nc1ccc(C)cc1C)C(=O)O,3.5%,5%,-3%,5%,?,-2%,13%,-5%
COc1cccc(/C=N/Nc2ccc(S(=O)(=O)O)cc2)c1O,4.4%,6%,-8%,1%,0%,-3%,-1%,13%
COc1cccc(NC(=O)N2CCC(NC(=O)C(Cc3ccccc3F)NC(C)=O)CC2)c1 (centres undefined),·,19%[46.1 µM],-2%,2%,-2%,·,-3%[46.1 µM],-1%
CCn1cc(CN2CCC(C(=O)Nc3cccc(-c4cccc(Cl)c4)c3)CC2)cn1,·,13µM*,10%,-3%,1%,·,?,-16%
CCCNC(=O)CC1Sc2ccccc2NC1=O (centres undefined),-0.1%,1%,3%,0%,5%,0%,-11%,-4%
COc1ccc(C(CNC(=O)COc2ccccc2C)N2CCCC2)cc1 (centres undefined),·,?,-21%,-14%,4%,·,10%,-32%
CCN1CCN(CC(=O)c2c(C)n(Cc3ccccc3)c3ccc(OC)cc23)CC1,7.4%,?,-16%,14%,-6%,-4%,-3%,-11%
CCS(=O)c1ccccc1C(=O)O (centres undefined),6.8%,?,-20%,-9%,22%,-2%,2%,16%
C=C(C)C1CC=C(C)/C(=N/NC(=O)c2ccccc2[N+](=O)[O-])C1 (centres undefined),·,?,-21%,·,1%,·,?,-9%
CCC(C)NC(=O)C1CCCN1S(=O)(=O)c1ccc(Cl)cc1 (centres undefined),1.1%,-10%,6%,-10%,-17%,-7%,?,·
CSc1nc(-c2ccco2)cc(-c2ccccc2)c1C#N,-23%,-26%,-1%,12%,2%,?,-1%,-24%
COc1ccc(S(=O)(=O)NCc2ccco2)cc1NC(=O)c1ccccc1,·,-21%[46.1 µM],10%,13%,4%,·,-11%,56%[activator]
CCCCn1c(=O)[nH]c(=O)c2c1nc(-c1ccc(-c3ccccc3)cc1)n2C,·,?,-1%,11%,-4%,·,?,3%

# Other entries.
SMILES,Cruzain Triton,MARV entry inh,RE007 growth inh,NS1 inh,SARS PLpro yeast,Cruzain noTriton,LASV entry inh,StopGo reporter
CN(C)/C=C/C(=O)c1cccc([N+](=O)[O-])c1,·,?,-16%,7%,-7%,·,11%,4%
Cc1onc(-c2c(F)cccc2Cl)c1C(=O)OCn1nnc2ccccc2c1=O,-5.7%,?,14%,-22%,7%,3%,0%,?
CCOC(=O)c1cccc(NC(=O)CSc2nnc(-c3cccnc3)n2C)c1,1.6%,-17%,-3%,1%,-1%,3%,-8%,-3%
COCCCNC(=O)CSc1nc(-c2ccc(OC)c(OC)c2)[nH]c1-c1ccc(F)cc1,-5.7%,0%[46.1 µM],·,·,·,3%,1%[46.1 µM],-11%
Cn1nc(C(=O)Nc2sc3c(c2C#N)CCCC3)ccc1=O,·,19%[14.2 µM],0%,·,1%,·,-3%,13%
CCCCCCNc1nc(Cl)nc(NC(C)(C)CO)n1,·,1%[46.1 µM],-14%,0%,1%,·,-20%,-7%
Cc1ccccc1C(=O)Nc1ccnn1C1CCN(Cc2cnn(C)c2)CC1,·,-4%,-19%,-4%,-4%,·,0%,-17%
OCc1cn(-c2ccccc2)nc1-c1ccc(Br)cc1,·,·,?,-30%,-13%,·,·,50%[activator]
O=C(COc1ccc(Br)cc1)N1CCOCC1,1.8%,?,-5%,2%,-1%,-4%,16%,31%[activator]
O=C(NCCc1ccc(Cl)cc1)C1CCN(S(=O)(=O)N2CCCCC2)CC1,5.8%,7%,6%,-2%,5%,-14%,-14%,-27%
C/C(=N/NC(=O)C(C)n1nc(C)c([N+](=O)[O-])c1C)c1ccc(OCC(N)=O)cc1 (centres undefined),·,9%[46.1 µM],4%,-3%,-3%,·,1%[46.1 µM],-22%
C=CCn1c(SCC(=O)N(C)C2CCCCC2)nnc1C1CC1,·,?,-12%,·,0%,·,14%,-5%
Cn1c(=N)n(CC(=O)c2ccc(Br)s2)c2ccccc21,-0.6%,?,-11%,4%,4%,-1%,?,20%
Cc1ccc(S(=O)(=O)N2CCOCC2)cc1NC(=O)CN1C(=O)NC2(CCCC2)C1=O,·,18%,4%,·,8%,·,1%,-7%

# Assay outcomes deposited in PubChem by National Center for Advancing Translational Sciences (NCATS).
